Vaccinia stage – blocks a specific stage of Vaccinia orthopoxvirus infection, primary screen, cell-based, single point; activity change (mCherry), % (no concentration beside the values); Vaccinia-infected cells, mCherry/Venus stage reporter fluorescence; stronger effect = lower value; some inactives read as strong as hits; hit rate 0.01% among 89,000;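 active = mCherry past -33% and 40 or more points under the early reporter, replicates agreeing; inconclusive = past -33% without that gap or agreement; tested in A549 cells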;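 also: scaled between vehicle wells and reference inhibitor wells; 23 nL library stock went into each well; one replicate is shown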
Vaccinia stage Venus – second read-out of Vaccinia stage, no call of its own (marks repeat the call); activity change (Venus), %; measured here: Venus reporter, other viral stage;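 negative = less Venus signal; first of two replicates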
* hit, by the source's call; ? = inconclusive; nt = no result given. Not all compounds are listed; rates above refer to the full screens.

SMILES	Vaccinia stage	Vaccinia stage Venus
CCCNC(=O)N1CC2(C1)CN(Cc1ccccn1)[C@H](CO)c1c2c2ccc(OC)cc2n1C	32	16
CNC[C@@H]1OCCCC[C@@H](C)Oc2ccc(NS(=O)(=O)c3ccc(F)cc3)cc2C(=O)N([C@H](C)CO)C[C@H]1C	7	2
C[C@@H]1CCCCO[C@H](CN(C)C(=O)C2CCCCC2)[C@H](C)CN([C@H](C)CO)C(=O)c2cc(NS(C)(=O)=O)ccc2O1	6	5
COc1ccccc1-c1ccc2c(c1)O[C@@H](CN(C)C(=O)Nc1ccccc1)[C@H](C)CN([C@@H](C)CO)S2(=O)=O	-24	-17
COc1ccccc1S(=O)(=O)N[C@H]1CC[C@H](CC(=O)NCc2cc(F)cc(F)c2)O[C@@H]1CO	18	11
C[C@@H]1CN([C@H](C)CO)C(=O)c2ccccc2-c2ccccc2CO[C@@H]1CN(C)Cc1ccccc1C(F)(F)F	?	nt
C[C@@H]1CN([C@@H](C)CO)C(=O)c2cccc(NC(=O)NC3CCCCC3)c2O[C@@H]1CN(C)C(=O)NC1CCCCC1	-17	-11
CO[C@@H]1CN(C)C(=O)c2cc(NC(=O)CN(C)C)ccc2OC[C@@H](C)N(Cc2ccccc2F)C[C@H]1C	-17	2

SMILES	Vaccinia stage	Vaccinia stage Venus
CN(C[C@H]1[C@H](c2ccccc2)[C@@H](CO)N1C(=O)C1CCC1)C(=O)c1ccccn1	9	-3
COc1ccc(C(=O)Nc2ccc3c(c2)C(=O)N(C)C[C@H](OC)[C@H](C)CN(C(C)=O)[C@@H](C)CO3)cc1	-3	0
CC=Cc1ccc2n(c1=O)C[C@@H]1[C@@H](CO)[C@H](C(=O)NC3CCCC3)N(CCC)[C@H]21 (mixture of isomers)	10	4
CC(C)NC(=O)Nc1ccc2c(c1)C(=O)N([C@H](C)CO)C[C@@H](C)[C@H](CN(C)Cc1ccncc1)O2	-3	-9
CNC(=O)C1=C[C@@H](c2ccc(OC)cc2)C[C@@H](OCCCCO)O1	15	9
C[C@H]1CCCCO[C@H](CN(C)S(=O)(=O)c2ccc(Cl)cc2)[C@@H](C)CN([C@@H](C)CO)C(=O)c2cc(NC(=O)Nc3ccc(F)cc3)ccc2O1	?	nt
C[C@H](O)C#Cc1ccc([C@H]2[C@@H](CO)N3CCCCN(S(=O)(=O)c4ccccc4)C[C@H]23)cc1	-16	-14
CCCNC(=O)[C@@H]1[C@@H](CO)[C@@H]2Cn3c(ccc(C4=CCCC4)c3=O)[C@H]1N2C(=O)CC	9	0

SMILES	Vaccinia stage	Vaccinia stage Venus
CCC(=O)N[C@@H]1CC[C@H](CC(=O)NCc2ccc(OC)cc2)O[C@H]1CO	0	-1
COc1ccccc1CN1[C@H](CO)[C@H]2c3ccccc3N(C(=O)c3ccc(F)cc3)C[C@H]21	-6	-2
C[C@@H]1CN([C@@H](C)CO)C(=O)c2ccccc2-c2ccccc2CO[C@H]1CN(C)C(=O)C1CC1	15	13
CCCN(C)C[C@@H]1OCCCC[C@H](C)Oc2ccc(NC(=O)C3CCCCC3)cc2C(=O)N([C@@H](C)CO)C[C@@H]1C	-32	-38
CS(=O)(=O)N1CC2(C1)[C@@H](c1ccccc1)[C@@H](CO)N2Cc1ccccn1	13	13
CC(=O)N(C)C[C@@H]1Oc2cc(-c3ccccc3F)ccc2S(=O)(=O)N([C@H](C)CO)C[C@H]1C	3	7
C[C@@H]1CN([C@@H](C)CO)S(=O)(=O)c2ccc(-c3cncnc3)cc2O[C@@H]1CN(C)C(=O)NC1CCCC1	6	6
COC(=O)c1ccc(CN2CC(=O)N3[C@@H](CO)[C@@H](c4ccc(Br)cc4)[C@@H]3C2)cc1	13	-13

SMILES	Vaccinia stage	Vaccinia stage Venus
CCC(=O)N[C@@H]1CC[C@@H](CCNC(=O)Nc2ccc(C(F)(F)F)cc2)O[C@H]1CO	-19	-11
CNC[C@@H]1OCCCC[C@@H](C)Oc2ccc(NS(=O)(=O)c3ccccc3)cc2C(=O)N([C@@H](C)CO)C[C@H]1C	-3	2
C[C@H]1CN([C@@H](C)CO)C(=O)c2cc(NC(=O)Cc3cn(C)c4ccccc34)ccc2O[C@@H]1CN(C)Cc1ccc(-c2ccccc2)cc1	1	12
C[C@H](CO)N1C[C@H](C)[C@H](CN(C)Cc2ccc(C(F)(F)F)cc2)Oc2ccc(NC(=O)CCCCCC(=O)Nc3ccccc3N)cc2C1=O	-24	-10
CCS(=O)(=O)N[C@H]1C=C[C@@H](CC(=O)NCc2ccc(F)cc2)O[C@H]1CO	-4	0
COc1ccc(CN(C)C[C@H]2OCCCC[C@@H](C)Oc3ccc(N(C)C)cc3C(=O)N([C@@H](C)CO)C[C@H]2C)cc1	-4	-4
CO[C@H]1CN(C)C(=O)c2cc(NC(=O)c3ccc(F)cc3)ccc2OC[C@H](C)N(C(C)=O)C[C@H]1C	19	-8
C[C@@H]1CN([C@H](C)CO)C(=O)Cc2cc(N(C)C)ccc2O[C@H]1CN(C)Cc1ccc(Oc2ccccc2)cc1	-13	-15

SMILES	Vaccinia stage	Vaccinia stage Venus
CCO[C@@H]1OC(C(=O)N2CCN(Cc3ccccc3)CC2)=C[C@H](C2CCCCC2)[C@H]1CCCO	-27	-15
C[C@@H]1CCCCO[C@H](CN(C)S(=O)(=O)c2ccc(F)cc2)[C@@H](C)CN([C@@H](C)CO)C(=O)c2cc(NC(=O)Nc3ccc4c(c3)OCO4)ccc2O1	-4	-2
C[C@H](CO)N1C[C@H](C)[C@@H](CN(C)C)OCCCC[C@H](C)Oc2ccc(NC(=O)c3ccccc3)cc2C1=O	-8	15
C[C@H]1CN([C@@H](C)CO)C(=O)c2cccc(NC(=O)NC3CCCCC3)c2O[C@H]1CN(C)Cc1ccc(Oc2ccccc2)cc1	-21	-14
Cn1cnc(S(=O)(=O)N[C@H]2C=C[C@@H](CC(=O)N3CCN(c4ccccc4)CC3)O[C@H]2CO)c1	16	12
CCS(=O)(=O)NCC[C@H]1CC[C@@H](NC(=O)C2CCC2)[C@H](CO)O1	1	2
COCC(=O)N1[C@H](CO)[C@@H]2c3ccccc3N(C(=O)Nc3ccccc3F)C[C@@H]21	12	4
CC(C)NC(=O)Nc1ccc2c(c1)C(=O)N([C@H](C)CO)C[C@H](C)[C@@H](CN(C)C(=O)C1CCCCC1)OCCCC[C@H](C)O2	0	10

SMILES	Vaccinia stage	Vaccinia stage Venus
O=C(NCC[C@@H]1CC[C@@H](NS(=O)(=O)c2ccccc2)[C@H](CO)O1)c1cc(Cl)cc(Cl)c1	-24	-10
C[C@H](CO)N1C[C@H](C)[C@H](CN(C)Cc2ccc(C(=O)O)cc2)Oc2ccc(NC(=O)Nc3ccccc3)cc2C1=O	14	9
CO[C@H]1CN(C)C(=O)c2cc(NC(=O)c3ccc(F)cc3)ccc2OC[C@H](C)N(C)C[C@H]1C	3	3
COc1ccc(CNC(=O)C[C@H]2C[C@H]3c4cc(NS(C)(=O)=O)ccc4O[C@H]3[C@@H](CO)O2)cc1	14	7
CCC(=O)NC[C@@H]1[C@@H](c2ccc(C3=CCCC3)cc2)[C@@H](CO)N1C(=O)CC	13	3
CCNC(=O)Nc1ccc2c(c1)C(=O)N(C)[C@@H]1CC[C@H](CC(=O)NCC3CCCCC3)O[C@H]1CO2	9	5
COc1ccc(S(=O)(=O)N(C)C[C@@H]2Oc3ccc(NC(=O)CCCN(C)C)cc3CC(=O)N([C@H](C)CO)C[C@@H]2C)cc1	6	-3
C[C@@H]1CCCCO[C@H](CN(C)S(=O)(=O)c2cccs2)[C@H](C)CN([C@H](C)CO)C(=O)c2cc(N(C)C)ccc2O1	?	nt

SMILES	Vaccinia stage	Vaccinia stage Venus
O=C1CN(S(=O)(=O)Cc2ccccc2)C[C@@H]2[C@@H](c3ccc(C#Cc4ccc(F)cc4)cc3)[C@@H](CO)N12	?	nt
CC=Cc1ccc2n(c1=O)C[C@H]1[C@H](CO)[C@@H](C(=O)N[C@@H](C)c3ccccc3)[C@@H]2N1Cc1cncnc1 (mixture of isomers)	11	0
CO[C@@H]1CN(C)C(=O)c2cc(C#N)ccc2OCC[C@H]2CC[C@@H](OC)[C@@H](CN(C)C(=O)[C@H]1C)O2	-1	0
CCCNC(=O)Nc1ccc2c(c1)OC[C@H](C)N(CCC(F)(F)F)C[C@H](C)[C@@H](OC)CN(C)C2=O	-8	0
COC(=O)C[C@H]1CC[C@@H]2[C@@H](COc3ccc(NC(=O)Nc4cccc(F)c4)cc3C(=O)N2C)O1	-1	10
CCCNC(=O)N1[C@@H]2c3ccc(-c4ccccc4OC)c(=O)n3C[C@H]1[C@H](CO)[C@H]2C(=O)O	8	10
CCNC(=O)C[C@H]1CC[C@H]2[C@@H](COc3ccc(NC(=O)Cc4cccs4)cc3C(=O)N2C)O1	18	21
Cc1ccc(S(=O)(=O)N[C@@H]2CC[C@@H](CCn3cc(C4CCCC4)nn3)O[C@H]2CO)cc1	-7	0

SMILES	Vaccinia stage	Vaccinia stage Venus
COc1ccc(NC(=O)N2CC(=O)N3[C@@H](CO)[C@H](c4ccc(-c5ccccc5)cc4)[C@@H]3C2)cc1	-9	-1
Cc1ccc(S(=O)(=O)N[C@H]2CC[C@H](CCNC(=O)Nc3ccc(Cl)cc3)O[C@H]2CO)cc1	-23	-9
C[C@H]1CCCCO[C@@H](CN(C)C(=O)Nc2ccc(C(F)(F)F)cc2)[C@@H](C)CN([C@@H](C)CO)C(=O)c2cc(NC(=O)c3ccncc3)ccc2O1	?	nt
O=C(Nc1cc(F)ccc1F)N1CCCCN2[C@@H](CO)[C@H](c3ccc(-c4ccccc4)cc3)[C@@H]2C1	?	nt
CCCNC(=O)N1C[C@@H](O)COC[C@@H]2O[C@@H](CC(=O)NCc3ccncn3)CC[C@H]21	3	2
Cc1noc(C)c1NC(=O)N(C)C[C@@H]1Oc2ccc(NC(=O)CCC(F)(F)F)cc2C(=O)N([C@@H](C)CO)C[C@@H]1C	-1	-6
C[C@H](CO)N1C[C@H](C)[C@H](CN(C)S(=O)(=O)c2ccc(Cl)cc2)Oc2c(NC(=O)c3ccncc3)cccc2C1=O	3	12
C[C@@H]1CN([C@H](C)CO)C(=O)c2cc(C#Cc3cccnc3)cnc2O[C@H]1CN(C)Cc1cccnc1	11	4

SMILES	Vaccinia stage	Vaccinia stage Venus
C[C@H](NC(=O)C[C@@H]1C=C[C@H](NC(=O)Cc2ccccn2)[C@@H](CO)O1)c1ccccc1	1	-1
O=C(O)C[C@H]1C[C@@H]2c3cc(NC(=O)C4CCC4)ccc3O[C@@H]2[C@@H](CO)O1	4	-1
CC(C)C#Cc1ccc([C@@H]2[C@@H](CO)N3C(=O)CN(C(=O)c4ccc5c(c4)OCO5)C[C@H]23)cc1	-31	-19
CCC(=O)N1[C@H](CO)[C@@H](c2ccc(-c3cccnc3)cc2)[C@@H]1CN(CC)C(C)=O	6	13
CN1CCN(C(=O)C[C@@H]2C[C@H]3c4cc(NC(=O)Nc5ccc(C(F)(F)F)cc5)ccc4O[C@H]3[C@@H](CO)O2)CC1	3	6
CO[C@H]1CN(C)C(=O)c2cc(NC(=O)NC(C)C)ccc2OC[C@@H](C)N(CC2CC2)C[C@H]1C	18	11
C[C@H](CO)N1C[C@H](C)[C@@H](CN(C)Cc2ccc(-c3ccccc3)cc2)Oc2c(NC(=O)c3ccncc3)cccc2C1=O	-26	-14
C[C@@H]1CN([C@@H](C)CO)C(=O)c2cc(NC(=O)CCN3CCOCC3)ccc2O[C@@H]1CN(C)Cc1ccncc1	13	4

SMILES	Vaccinia stage	Vaccinia stage Venus
C[C@@H]1CCCCO[C@H](CN(C)Cc2ccc(C(=O)O)cc2)[C@@H](C)CN([C@H](C)CO)C(=O)c2cc(NS(C)(=O)=O)ccc2O1	4	10
C[C@@H]1CN([C@H](C)CO)C(=O)c2cccc(NS(=O)(=O)c3ccc(F)cc3)c2O[C@@H]1CN(C)C(=O)Nc1ccc2c(c1)OCO2	13	17
COc1ccc(S(=O)(=O)N[C@H]2CC[C@H](CCn3cc(-c4cccc(F)c4)nn3)O[C@H]2CO)cc1	-5	-4
C[C@H](CO)N1C[C@H](C)[C@H](CN(C)C(=O)Nc2ccccc2)OCCCC[C@H](C)Oc2ccc(NS(C)(=O)=O)cc2C1=O	20	8
COc1ccc(NC(=O)N(C)C[C@@H]2Oc3ccc(NC(=O)NC4CCCCC4)cc3CC(=O)N([C@H](C)CO)C[C@H]2C)cc1	0	1
C[C@@H]1CN([C@@H](C)CO)C(=O)c2cc(C#C[C@@H](C)O)cnc2O[C@H]1CN(C)C(=O)Cc1ccccn1	-35	-28
C/C=C/c1cnc2c(c1)C(=O)N([C@H](C)CO)C[C@@H](C)[C@@H](CN(C)C(=O)NC1CCCCC1)O2	15	6
